Screening data (PubChem)
NS1 function inh: inhibitors of influenza NS1 protein function; hit rate 0.4% among 270,000; AID 2326; S. cerevisiae slowed by influenza A NS1, growth recovery by OD600; Potency, µM (top dose mostly 46.1 µM), without a hit: at the top dose activity, positive = more growth; active means well fitted rising curve with a large enough effect; inconclusive means small, poorly fitted or top-dose-only effect; inactive means no such curve, though single readings can be large or run the other way; note: nearly all actives have a fitted effect of over 50% in size
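S. cerevisiae expressing influenza A NS1, grown in glucose, washed, then diluted 1:100 into pH 6.0 -URA galactose medium with 23 nl compound. Growth recovery read as OD600; NS1-free strain serves as control.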
RE007 growth inh: less growth of the S. pombe RE007 Vpr strain; Potency, µM (series often up to 92.2 µM), for inactives: at the top dose activity change, negative = less growth; S. pombe RE007 Vpr strain, BacTiter-Glo ATP luminescence, 24 h; control for the full effect not named in the record; hit rate 0.21% among 360,000; AID 651644; active = well fitted falling curve with a large enough effect; inconclusive = small, poorly fitted or top-dose-only effect; inactive = no such curve, though single readings can be large or run the other way;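 note: % is set by controls: 0 for no effect and ±100 for the full control effect; nearly all actives have a fitted effect of over 50% in size; the assay follows cell death caused by Vpr and the record does not say whether a fall means rescue or toxicity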
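Fission yeast RE007 carrying one integrated HIV-1 vpr copy, seeded at OD 0.01 in PMG+AL medium with 23 nL pinned compound. Grown 24 h at 30 degrees; viability read by BacTiter-Glo luminescence after 5 min.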
SARS PLP yeast: inhibitors of SARS-CoV papain-like protease in yeast; S. cerevisiae expressing SARS-CoV PLpro, growth rescue; control for the full effect not named in the record; Potency, µM (series often up to 32.9 µM), without a hit: at the highest dose activity, positive = growth rescue; hit rate 0.19% among 330,000; AID 485353; active means well fitted rising curve with a large enough effect; inconclusive means small, poorly fitted or top-dose-only effect; inactive means no such curve, though single readings can be large or run the other way; note: 0% is about no effect; nearly all actives have a fitted effect of over 55% in size; growth read by luminescence after 48 h
Lassa entry inh: blocks Lassa virus binding to or entry into cells; Lassa virus pseudotype entry inhibition, cell reporter; control for the full effect not named in the record; Potency, µM (top dose mostly 37.9 µM), inactives show top-dose activity change, negative = inhibition, hits mostly inhibitors; hit rate 1.2% among 300,000; AID 540256; active means well fitted inhibition curve with a large enough effect; inconclusive means small, poorly fitted or top-dose-only effect, or effect the other way; inactive means flat fitted curve, though single readings scatter; tested in HEK293 cells; note: % is set by controls: 0 for no effect and ±100 for the full control effect; nearly all actives have a fitted effect of over 50% in size; luciferase read-out
Cruzain inh noDet: inhibitors of Trypanosoma cruzi cruzain without detergent | AID 1476 | hit rate 2.3% among 200,000 | purified cruzain, Z-FR-AMC fluorescence, no detergent | Potency, µM, without a hit: max response, negative = inhibition, hits mostly inhibitors | P25779;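 note: plate controls were enzyme without inhibitor for no effect and buffer without enzyme for full effect; nearly all actives have a fitted effect of over 40% in size; top concentration of the series not given in the record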
Target sequence (P25779 123-467 limits assumed): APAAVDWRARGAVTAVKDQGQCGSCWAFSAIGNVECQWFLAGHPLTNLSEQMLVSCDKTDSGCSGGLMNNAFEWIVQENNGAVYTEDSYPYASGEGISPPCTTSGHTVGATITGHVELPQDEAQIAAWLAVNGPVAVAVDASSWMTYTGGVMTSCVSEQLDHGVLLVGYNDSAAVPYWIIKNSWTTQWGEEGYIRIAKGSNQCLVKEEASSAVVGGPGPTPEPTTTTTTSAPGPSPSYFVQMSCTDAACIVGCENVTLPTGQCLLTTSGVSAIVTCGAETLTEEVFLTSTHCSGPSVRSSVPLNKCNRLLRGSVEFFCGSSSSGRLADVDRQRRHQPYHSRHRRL
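Purified cruzain at 1.5 nM, pre-incubated 15 min with compound at room temperature in 100 mM sodium acetate pH 5.5, 5 mM DTT, 0.00005% Triton X-100. Reaction started with 2 uM Z-FR-AMC; AMC fluorescence increase over 60 s gives rate.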
2A StopGo: lowers the luciferase signal of an FMDV 2A StopGo reporter; human cells with a luciferase reporter of 2A StopGo recoding; control for the full effect not named in the record; AID 1159524; Potency, µM (titrated, usually from 57.9 µM), without a hit: at the highest dose signal change, negative = less light; hit rate 1.2% among 410,000; active = well fitted falling curve with a large enough effect; inconclusive = small, poorly fitted or top-dose-only effect; inactive = no such curve, though single readings can be large or run the other way; tested in HEK293T cells; note: % is set by controls: 0 for no effect and ±100 for the full control effect; nearly all actives have a fitted effect of over 45% in size; luciferase light after 4 h
Cruzain Triton: inhibitors of Trypanosoma cruzi cruzain with detergent | purified cruzain, Z-FR-AMC fluorescence, 0.01% Triton | Potency, µM, for inactives: max response, negative = inhibition, actives largely listed as inhibitors | hit rate 0.43% among 200,000;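 note: plate controls were neutral wells for no effect and buffer without enzyme for full effect; nearly all actives have a fitted effect of over 40% in size; top concentration of the series not given in the record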
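15 min RT preincubation of 1.5 nM cruzain with compound, then 2 uM Z-FR-AMC added; kinetic AMC fluorescence, 60 s delta. Triton X-100 0.01%, pH 5.5.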
MARV entry inh: Marburg virus entry inhibition. Marburg virus pseudotyped entry inhibition, cell reporter; control for the full effect not named in the record; about a third of the inactives were read at about 46 µM. Potency, µM (titrated, usually from 37.8 µM), for inactives: at the top dose activity change, negative = inhibition, hits mostly inhibitors. hit rate 1.8% among 300,000. AID 540276; active = well fitted inhibition curve with a large enough effect; inconclusive = small, poorly fitted or top-dose-only effect, or effect the other way; inactive = flat fitted curve, though single readings scatter; tested in HEK293 cells; about a fifth of its hits are not listed in these tables; note: % is set by controls: 0 for no effect and ±100 for the full control effect; luciferase read-out
* = called active by the depositor; ? = inconclusive; nt = no result given; & = joins results of further samples; [ ] = remark or other dose. Unless noted, calls come from the whole dose curve; as a rule, active = well fitted curve in the direction sought with a large enough effect; inconclusive = small, poorly fitted or top-dose-only effect, or another doubt; inactive = no such curve, though single readings can be large; an effect the other way counts as inactive or inconclusive. Potency is the fitted concentration of half-maximal effect.

SMILES	NS1 function inh	RE007 growth inh	SARS PLP yeast	Lassa entry inh	Cruzain inh noDet	2A StopGo	Cruzain Triton	MARV entry inh
CCOc1ccc(-c2c(C)nn3c(C)c(C(=O)NCc4ccc(Cl)cc4)cnc23)cc1OCC	nt	nt	nt	-1%[46.1 µM]	-17%	-10%	10%	nt
COc1cc(C(c2c(C)[nH]n(-c3ccccc3)c2=O)c2c(C)[nH]n(-c3ccccc3)c2=O)cc(OC)c1OC	12%	7%	-6%	-15%	-13%	nt	-0.6%	-6%
COc1ccc(Nc2nc(N)nc(CSc3nnc(N)s3)n2)cc1	-7%	0%	-2%	12%	-4%	41%[activator]	2.0%	2%
O=C(Nc1cccc(Cl)c1)c1cccc(N2C(=O)C3CC=CCC3C2=O)c1 (configuration not stated)	-4%	-15%	1%	-7%[46.1 µM]	nt	0%	nt	0%[46.1 µM]
Oc1ccc(NCc2cccc(OCc3ccc(F)cc3)c2)cc1	7%	-25%	-3%	nt	nt	4%	nt	nt
Nc1ncc(Br)cc1S(=O)(=O)NCCC(=O)N1CCN(c2ccccn2)CC1	-24%	-8%	0%	20%&-18%	12%	-1%	-2.5%	?
c1ccc(N(c2ccccc2)c2nc(N3CCOCC3)nc(N3CCOCC3)n2)cc1	-20%	nt	-2%	nt	12%	nt	-0.6%	1%
CN(C(=S)NC(=O)/C=C/c1ccc(F)cc1)C1CCCCC1	3%	-4%	10%	-1%	3%	7%	-8.0%	1%
COc1cccc(/C=C2\SC(=S)N(C(C(=O)O)c3ccccc3)C2=O)c1OC (configuration not stated)	17%	14%	-2%	1%	nt	1%	nt	7%[46.1 µM]
CCc1noc(C)c1C(=O)Nc1ccc(C(F)(F)F)cc1	8%	-2%	-6%	nt	nt	7%	nt	nt
N#Cc1ccccc1Cn1cc(C(=O)C2CC2)c2ccccc21	-35%	39%	-15%	?	-1%	-23%	-6.8%	?
Nc1nc2c(ncn2C2CCCC2)c(=O)[nH]1	nt	2%	nt	-4%[46.1 µM]	nt	-4%	nt	0%[46.1 µM]
CSc1ccc(CCNC(=O)c2cnn(-c3ccccc3)c2-n2cccc2)cc1	nt	nt	nt	?	14%	-17%	-9.0%	17%[46.1 µM]
Cn1nc(OC(=O)Nc2ccccc2)cc1C(F)(F)F	-9%	nt	-3%	nt	6%	nt	2.9%	-2%
CN(Cc1ccco1)C(=O)C1CCC(=O)N(CCc2cccc(F)c2)C1 (configuration not stated)	-7%	12%	-2%	8%[46.1 µM]	nt	8%	nt	4%[46.1 µM]
CCOC(=O)CSc1nc(N)nc(C)c1Cl	1%	10%	2%	4%	nt	-3%	nt	?
CSc1ccccc1NC(=O)Cn1c([N+](=O)[O-])cnc1C	5%	-4%	22%	-19%[46.1 µM]	nt	-19%	nt	4%[46.1 µM]
CC(C)C[C@H](NC(=O)[C@@H]1O[C@H]1C(=O)O)C(=O)NCCCCN=C(N)N	-5%	8%	2%	-4%	0.032µM*	-17%	0.056µM*	?
COc1cc(Cl)c(C)cc1NC(=O)CSc1ccccc1	-15%	3%	-13%	4%	0%	-20%	-4.4%	3%[46.1 µM]
O=C(NCCCN1CCOCC1)c1ccc2nc(Cc3cccc(Cl)c3)oc2c1	15%	7%	5%	12%	nt	-21%	nt	-3%
O=C(c1ccc(Br)cc1)N(Cc1ccco1)c1ccccn1	nt	nt	nt	-6%[46.1 µM]	-7%	52%[activator]	-3.3%	-10%[46.1 µM]
CC(=O)N1CCN(Cc2nc3cc(Cl)ccc3c(=O)[nH]2)CC1	0%	7%	2%	1%	nt	-2%	nt	?
Cc1nc2sc(C(c3cccc(F)c3)N3CCCC(C)C3)c(O)n2n1 (configuration not stated)	-5%	14%	-1%	-11%	-2%	4%	1.3%	5%
CCOC(=O)N1CCN(C(=O)C(NC(=O)c2ccc(CC)cc2)C(C)C)CC1 (configuration not stated)	1%	-13%	3%	1%	-2%	nt	0.9%	?
Cc1cccnc1NC(=O)CCNC(=O)c1ccccc1Cl	19%	10%	6%	nt	nt	-2%	nt	nt
Cn1cc([N+](=O)[O-])c(C(=O)N(Cc2ccccc2)Cc2ccccc2)n1	-4%	6%	-4%	18%	12%	-1%	-2.8%	?
O=C(O)COc1ccc(/C=C/c2ccc3cccc([N+](=O)[O-])c3n2)cc1	6%	-13%	0%	-6%	5%	0%	-12%	-9%
CCOC(=O)c1c(C)[nH]c(C(=O)COC(=O)CSC)c1C	-45%	15%	3%	4%	2%	14%	-1.3%	?
COc1ccc(OC)c(NC(=O)C23CCC(C)(C(=O)C2)C3(C)C)c1 (configuration not stated)	4%	16%	4%	?	6%	-18%	-7.1%	9%
COc1ccc(-n2c(-c3ccc(C)cc3)nc3ccccc3c2=O)cc1	-4%	-24%	0%	-20%	nt	18%	nt	17%
COc1cccc(C2N(Cc3ccccc3)C(=O)C2(F)F)c1OC (configuration not stated)	-3%	2%	-1%	0%	nt	-22%	nt	?
COc1ccccc1C1=NOC(C)(c2sc(-c3ccc(Cl)cc3)nc2C)C1 (configuration not stated)	0%	8%	0%	nt	nt	48%[activator]	nt	nt
CCn1cc(/C=C(\NC(=O)c2ccc(C)cc2)C(=O)NCCN2CCOCC2)c2ccccc21	6%	-4%	3%	nt	nt	-1%	nt	nt
COc1ccc(/C(O)=C2\C(=O)C(=O)N(CCN(C)C)C2c2cccc(OC)c2OC)cc1 (configuration not stated)	-3%	-12%	3%	-4%	-3%	0%	-8.9%	-16%
O=C(NCc1cccc(Cl)c1)C1CCN(C(=O)c2sccc2-n2cccc2)CC1	nt	nt	nt	nt	11%	-26%	-4.1%	0%[46.1 µM]
O=C(CC(O)(c1ccccc1)C(F)(F)C(F)F)c1cccs1 (configuration not stated)	6%	-11%	nt	19%	-8%	-17%	-0.3%	6%
Cc1noc(C)c1S(=O)(=O)N(CC(=O)Nc1ccc(F)cc1F)c1ccc(C(C)C)cc1	nt	nt	nt	14%[46.1 µM]	8%	?	-10%	?
CCCn1nnnc1SCC(=O)NNC(=O)C1CCCCC1	7%	nt	12%	nt	-4%	nt	7.8%	1%
Cc1ccc(C(=O)NC(C(=O)Nc2ccccc2)c2ccccc2)cc1 (configuration not stated)	?	14%	2%	nt	nt	-3%	nt	nt
CCn1c(SCC(=O)Nc2cccc(F)c2)nc2c(c1=O)SC(C)C2 (configuration not stated)	-97%	6%	10%	nt	-6%	-6%	-11%	nt
CCS(=O)(=O)N1CCC(C(=O)NCc2cccc(OC)c2)CC1	4%	-19%	-5%	nt	-4%	0%	4.8%	nt
O=C(Nc1nc2c(F)cccc2s1)C1CC1	-26%	11%	-2%	nt	nt	18%	nt	nt
Cc1cc(SCC(=O)NCc2ccc(Cl)cc2)nc(=O)[nH]1	nt	nt	nt	27%[46.1 µM]	-1%	0%	0.8%	nt
Cc1ccc(C2/C(=C(\O)c3cnn(-c4ccccc4)c3C)C(=O)C(=O)N2CCN(C)C)o1 (configuration not stated)	-9%	11%	1%	10%	13%	60%[activator]	-2.4%	?
COC(=O)c1ccc(C2/C(=C(\O)c3ccc4c(c3)OCCO4)C(=O)C(=O)N2CCCN2CCOCC2)cc1 (configuration not stated)	11%	-9%	2%	0%[46.1 µM]	nt	2%	nt	?
COc1cc(/C=C/C(=O)OCC(=O)Nc2ccc3c(c2)OCCO3)ccc1OCC#N	?	5%	5%	-1%	?	-18%	-5.1%	-4%
COc1cc(-c2cc(-c3ccc(F)cc3)nc(N)c2C#N)ccc1O	-2%	-2%	0%	?	nt	-19%	nt	-14%[46.1 µM]
CCOC(=O)N1CCC(N2CCCC(CO)(Cc3cccc(OC)c3)C2)CC1 (configuration not stated)	5%	4%	-1%	nt	nt	-8%	nt	nt
COc1ccc(CCN(C)CCC(=O)Nc2c(C)cc(C)cc2C)cc1OC	-6%	-1%	2%	-27%	5%	-3%	5.0%	-29%
COc1cc(CN(C(=O)c2ccc(C)cc2)C2CCS(=O)(=O)C2)cc(OC)c1OC (configuration not stated)	nt	nt	nt	11%[46.1 µM]	7%	-4%	-1.6%	-7%[46.1 µM]
COc1cc(C(=O)Nc2ccc3ccccc3c2)cc(OC)c1OC	-21%	1%	-9%	-11%[46.1 µM]	nt	20%	nt	1.4µM*
CC1CCCN(C(=O)C2CC(=O)N(c3ccc(Cl)cc3)C2)C1 (configuration not stated)	-10%	7%	-1%	-9%[46.1 µM]	nt	-2%	nt	-2%[46.1 µM]
COc1ccc(CN(C2CCCCC2C)S(=O)(=O)c2ccc(S(=O)(=O)N(C)C)cc2)cc1OC (configuration not stated)	?	0%	7%	?	?	-27%	-4.9%	?
Cc1ccc2[nH]c3c(=O)n(CCC4=CCCCC4)cnc3c2c1	6%	-9%	?	?	-20%	7%	0.3%	?
O=C(NCc1ccccc1)C(c1ccco1)N(C(=O)c1csnn1)C1CC1 (configuration not stated)	2%	0%	-2%	0%[46.1 µM]	nt	4%	nt	2%[46.1 µM]
C=CCNC(=O)c1ccc(Cn2c(=S)[nH]c3cc4c(cc3c2=O)OCO4)cc1	23%	8%	4%	-13%	?	16%	?	-14%
COc1ccc(C2CC(=O)Nc3c2c(=O)[nH]c2nc4ccccc4n32)cc1 (configuration not stated)	nt	nt	nt	14%[46.1 µM]	10%	-20%	-0.8%	1%[46.1 µM]
Cc1ccc(C)c(NC(=O)C(OC(=O)c2cnc(C)cn2)c2ccccc2)c1 (configuration not stated)	nt	14%	-1%	9%	nt	4%	nt	-17%
COc1ccc(C(=O)Nc2c3c(nn2-c2cccc(Cl)c2)CS(=O)C3)cc1 (configuration not stated)	0%	28%	5%	9%	-2%	-7%	8.5%	10%[46.1 µM]
COc1ccc(CCNC(=O)c2cc(-c3ccco3)on2)cc1OC	nt	3%	-8%	5%	nt	12%	nt	-3%
Cc1ccc(C(=O)NCC(=O)NCc2ccc(Cl)cc2)s1	nt	3%	1%	-6%[46.1 µM]	nt	-8%	nt	?
